Source: PubChem BioAssay
MT1-MMP reporter: inhibitors of MT1-MMP promoter transcription, cell-based, luciferase reporter, luminescence (AID 618) | calls from a first round at 10 µM; hits with a dose series show EC50 in µM | hit rate 0.62% among 87,000 | MT1-MMP promoter luciferase reporter cells, luminescence;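 active means over half of the reporter light lost at 10 µM or EC50 under 50 µM; inactive means the rest and hits that failed the dose series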;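 further: actives suppress MT1-MMP promoter-driven transcription so potencies describe inhibitors; HT1080 fibrosarcoma cells; overnight exposure; toxic or luciferase-blocking compounds were not removed from the actives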
WNV NS2B-NS3 inh: inhibitors of WNV NS2B-NS3 protease, primary screen, biochemical, fluorogenic substrate | Genome polyprotein (West Nile virus), P06935 | fluorogenic substrate Ex360/Em465; stronger effect = lower value | z-score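 (tested at a level between 10 and 100 µM)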 | hit rate 0.18% among 65,000 | AID 577, 2007;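 active means z-score at -3 or under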;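 further: score is relative to mean and spread of the compound wells of a plate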
Target sequence (P06935 1371-1501 limits assumed): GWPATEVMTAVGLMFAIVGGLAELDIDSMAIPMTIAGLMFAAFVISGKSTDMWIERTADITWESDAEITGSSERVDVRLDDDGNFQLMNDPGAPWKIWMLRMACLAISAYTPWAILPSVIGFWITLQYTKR
Target sequence (P06935 1502-1679 limits assumed): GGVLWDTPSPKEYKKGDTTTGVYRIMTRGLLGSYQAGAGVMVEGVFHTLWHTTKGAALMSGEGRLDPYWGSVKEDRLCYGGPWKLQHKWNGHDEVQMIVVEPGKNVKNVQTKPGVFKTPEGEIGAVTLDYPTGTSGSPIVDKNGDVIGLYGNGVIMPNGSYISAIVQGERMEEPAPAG
Hsc70: Hsc70 inhibitors, probe displacement, primary screen, biochemical, fluorescence polarization (AID 568). Hsc70 fluorescence polarization, probe displacement; higher % means a stronger effect; strong numbers were not always called active. displacement, % at 20 µM, or IC50 in µM where a hit was titrated. 83,000 tested, under 10 active;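 active means displacement above 50% without optical interference and an IC50 on retest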;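 further: ATPase domain with a fluorescein-tagged ATP probe; 0% = vehicle and 100% = excess ADP; read after one hour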
The depositor's hits bear a star; i = inactive; x = not tested or not shown. Random draw from the library. Share with any hit: about 0.77%.

| SMILES | WNV NS2B-NS3 inh | Hsc70 | MT1-MMP reporter |
| --- | --- | --- | --- |
| Fc1ccccc1N1CCN(C(c2ccncc2)c2nnnn2C2CCCC2)CC1 (stereo unspecified) | 1.1 | 4.8% | i |
| Cc1ccc(S(=O)(=O)N2CCN(Cc3cc(C(C)C)ccc3O)CC2)cc1 | -1.3 | 0.7% | i |
| COC(=O)CC(=O)CSc1nc2c(cc1C#N)CCCCC2 | -0.3 | 1.6% | i |
| CC(=O)OCCCN1c2ccccc2Nc2nnc(-c3ccccc3)cc21 | x | 4.4% | i |
| Cc1ccc2[nH]c(=O)c(C(c3nnnn3CCc3ccccc3)N3CCOCC3)cc2c1 (stereo unspecified) | -0.6 | 4.0% | i |
| Cc1nc(N2CCN(c3ccccc3)CC2)[nH]c(=O)c1Cc1cccc2ccccc12 | -1.2 | -3.5% | i |
| CCN(CC)C(=O)CSc1nnc(-c2cccs2)n1Cc1ccco1 | -0.5 | 1.7% | i |
| Cn1cc(C(=O)NCc2ccc(F)cc2)c(=O)c2cc(S(=O)(=O)N3CCCCC3)ccc21 | x | 0.5% | i |
| C1=C(C(c2nnnn2C2CCCCC2)N2CCCCC2)COc2ccccc21 (stereo unspecified) | -0.26 | 4.0% | i |
| Cc1ccc(C(=O)Nc2nnc(-c3cccs3)s2)cc1C | -0.68 | -2.1% | i |
| O=C(CN1CC(=O)Oc2ccccc21)OCC(=O)c1ccc(Br)cc1 | x | -4.4% | i |
| O=C(c1ccco1)c1cn(CC(=O)N2CCCc3ccccc32)c2ccccc12 | -1.8 | 0.9% | i |
| Cc1ccccc1CS(=O)(=O)CCC(=O)NCCCN1CCN(c2ccccc2F)CC1 | 0.42 | -5.4% | i |
| O=C(O)C1CC(=O)n2c(nc3ccccc32)S1 (stereo unspecified) | -1.1 | 6.0% | i |
| O=C(CCCn1c(=O)c2ccccc2n(CC(=O)NCc2ccco2)c1=O)NCc1ccco1 | 0.62 | -2.6% | i |
| CC(=O)N1CCN(S(=O)(=O)c2ccc(C)cc2)C1c1ccc(N(C)C)cc1 (stereo unspecified) | -0.41 | 5.2% | i |
| Cn1c(N2CCN(C(=O)Nc3ccc(C(F)(F)F)cc3)CC2)nc2ccccc21 | -0.43 | -1.2% | i |
| O=C1C(C=NCCCn2ccnc2)=C(O)c2ccccc21 | -0.24 | 1.2% | i |
| CCOC(=O)c1c(NC(=O)OC)sc(C(=O)N(C)C)c1C | 0.05 | 2.9% | i |
| COC(=O)c1[nH]c2ccc(C)cc2c1NC(=O)Nc1ccccc1OC | 0.39 | -22% | i |
| COc1ccc(C2C=C(c3ccccc3)Nc3nc(NC(C)=O)nn32)cc1 (stereo unspecified) | x | 1.5% | i |
| Cc1cccc(NC(=O)C2CCCN2S(=O)(=O)c2cccc3cccnc23)c1 (stereo unspecified) | -0.8 | 5.1% | i |
| Cn1c(Cn2nnc3ccccc32)nnc1SCC(=O)N1c2ccccc2CCc2ccccc21 | 0.44 | -3.1% | i |
| Cn1c(NC(=O)c2ccc(C(C)(C)C)cc2)cc(=O)n(C)c1=O | -0.05 | -4.1% | i |
| COC(=O)c1c(C(=O)OC)c2ccncn2c1Cl | 1.8 | 0.3% | i |
| COc1cccc(/C=N/n2c(=S)n(C)c3ccccc32)c1OC | x | -2.0% | i |
| O=C1N(S(=O)(=O)c2ccccc2F)C(=O)C2(CCCC2)N1S(=O)(=O)c1ccccc1F | 0.72 | -0.6% | i |
| CCSc1nc(-c2cccs2)nc2c1c(=O)n(C)c(=O)n2C | -0.21 | 1.5% | i |
| O=C(CN1CCCCCC1)Nc1ccc(F)c(F)c1F | -0.35 | 1.5% | i |
| CC(=O)CCS(=O)(=O)c1ccc(Oc2ccc(S(=O)(=O)CCC(C)=O)cc2)cc1 | x | 4.6% | i |
| O=C(CSc1nc2ccccc2[nH]1)c1cccs1 | 0.55 | 3.7% | i |
| CCn1c(SCC(=O)Nc2ccc(C(=O)OC)cc2)nnc1-c1cccs1 | 0.03 | 4.1% | i |
| CCOC(=O)Nc1ccc(OC)cc1S(=O)(=O)N1CCCCC1 | -0.07 | 3.0% | i |
| CCOc1cc(C)c(C(C)C)cc1S(=O)(=O)NCc1ccccn1 | -1.5 | -7.7% | i |
| CC(C)c1ccc(N2CC(C(=O)Nc3nccs3)CC2=O)cc1 (stereo unspecified) | -0.05 | 3.1% | i |
| COc1ccccc1NC(=O)N(Cc1ccc2c(c1)OCO2)Cc1nc2ccccc2c(=O)[nH]1 | -0.04 | -4.8% | i |
| O=C(NCC1CCCO1)C(C(=O)c1ccccc1)n1cc(Cl)ccc1=O (stereo unspecified) | -0.94 | 18% | i |
| CCOC(=O)c1cccc(NC(=O)CCS(=O)(=O)c2cccs2)c1 | -0.93 | -0.7% | i |
| NC1C2CN(c3nc4c(cc3F)c(=O)c(C(=O)O)cn4-c3ccc(F)cc3F)CC12 (stereo unspecified) | -0.95 | -1.9% | i |
| O=C1CCC(C(=O)OCC(=O)C23CC4CC(CC(C4)C2)C3)N1 (stereo unspecified) | -1.4 | -4.0% | i |
| COCc1[nH][nH]c(=O)c1C=Nc1ccc(Oc2ccccc2)cc1 | x | -6.0% | i |
| COC(=O)C(Cc1c[nH]c2ccccc12)NC(=O)C(C)C (stereo unspecified) | x | 1.7% | i |
| COc1ccc(CCNC(=O)CCn2c(=O)[nH]c3cc(OC)c(OC)cc3c2=O)cc1OC | x | -1.6% | i |
| CNCCCOc1ccc(C(C)(C)c2ccccc2)cc1 | x | 0.2% | i |
| CC(C)CCOc1cccc(C2c3c(oc4ccccc4c3=O)C(=O)N2CCCN2CCOCC2)c1 (stereo unspecified) | -0.38 | -0.9% | i |
| O=C(NCCOC(=O)c1ccccc1C(=O)OCCNC(=O)c1cccnc1)c1cccnc1 | x | -0.3% | i |
| COc1cccc2cc(-c3nnc(SCC(=O)NCCc4ccccc4)n3C)oc12 | x | 3.6% | i |
| CCOC(=O)c1c(NC(=O)CN2CCOCC2)sc2c1CC(C)(C)OC2 | -0.11 | -0.6% | i |
| CC(=O)c1cccc(NC(=O)COc2nsnc2N2CCOCC2)c1 | 0.46 | 4.1% | i |
| Cc1nc2nc(CSc3nc4ccccc4s3)cc(=O)n2[nH]1 | 0.86 | -8.9% | i |
| Cc1ccc(CCN2CC(C(=O)NCCCN3CCN(C)CC3)CC2=O)cc1 (stereo unspecified) | -0.1 | 1.5% | i |
| Cc1ccc(CNn2cnnc2SCc2ccc(F)cc2)cc1 | x | -9.3% | i |
| O=C(O)CCn1ccnc1-c1ccccc1 | -0.33 | 4.1% | i |
| CC(NC(=O)COC(=O)CCNC(=O)c1ccco1)C12CC3CC(CC(C3)C1)C2 (stereo unspecified) | -0.37 | 46% | i |
| Cc1nnc2sc(-c3ccccn3)nn12 | 1.9 | 1.0% | i |
| O=C(Nc1cccc(Cl)c1)N1CCN2C(=O)c3ccccc3C12c1ccccc1 (stereo unspecified) | x | 10% | i |
| COc1cccc2cc(C(=O)OC3CCN(C)CC3)c(=O)oc12 | -0.85 | 1.0% | i |
| CSc1ccccc1NC(=O)c1ccoc1C | -0.34 | -7.3% | i |
| Cc1ccc(CCNC(=O)C2CCCN(S(=O)(=O)c3c(C)noc3C)C2)cc1 (stereo unspecified) | 0.82 | 2.9% | i |
| CCCc1cc(=O)n2[nH]c(C)cc2n1 | -0.46 | -5.0% | i |

Further results:
| SMILES | WNV NS2B-NS3 inh | Hsc70 | MT1-MMP reporter |
| --- | --- | --- | --- |
| O=C(CNC(=O)c1ccco1)OCN1C(=O)c2ccccc2C1=O | 0.12 | -13% | i |
| COC(=O)CNc1nc(C2CC2)nc2c1nnn2Cc1ccccc1Cl | 0.18 | 1.2% | i |
| O=C(Cn1c(=S)nc2ccccn21)N1CCc2ccccc2C1 | -0.12 | -0.8% | i |
| COc1cccc(NC(=O)Cc2c(O)c3ccccc3[nH]c2=O)c1 | 0.38 | 1.1% | i |
| Clc1ccccc1OCc1nc(-c2ccncc2)no1 | -0.4 | -0.9% | i |
| Cc1cc(C)nc(SCc2nnc(SCC(=O)NCc3ccco3)n2-c2ccccc2)n1 | -0.68 | -1.2% | i |
| CCOC(=O)Cc1csc(NC(=O)C(C)(C)C)n1 | -0.88 | 1.3% | i |
| Cc1nc(N2CCC(C)CC2)c2c(C)c(C(=O)O)sc2n1 | -0.09 | -9.7% | i |
| CC(C)C[C@H](NC(=O)OC(C)(C)C)C(=O)N1CCC(C(=O)O)CC1 | x | -1.6% | i |
| CC1CCCCN1C(=O)c1cc2nc(-c3ccccc3)cc(-c3ccccc3)n2n1 (stereo unspecified) | x | 4.2% | i |
| CCn1c(-c2ccc(C(C)(C)C)cc2)n[nH]c1=S | 1.7 | 0.2% | i |
| CC(C)(C)C(=O)C(Cc1ccccc1Cl)n1cncn1 (stereo unspecified) | x | 2.2% | i |
| NC(=O)c1ccc(-n2nnnc2SCc2ccc(F)cc2)cc1 | -1.2 | -4.8% | i |
| CN1CCN(C(=O)c2cnn3c(C(F)(F)F)cc(-c4ccc5c(c4)OCO5)nc23)CC1 | -0.52 | 2.9% | i |
| CCOC(=O)c1ccc(S(=O)(=O)Nc2cc(C(C)(C)C)no2)cc1 | 0.45 | 5.2% | i |
| O=C(CN1C(=O)COCC1=O)N1CCOCC1 | -0.0032 | -1.1% | i |
| CCOC(=O)N1CCC(NC(=O)C2CCCN(S(=O)(=O)c3cccnc3)C2)CC1 (stereo unspecified) | 0.22 | 4.3% | i |
| COCCNC(=O)CN(C)S(=O)(=O)c1ccc(Br)cc1 | -0.21 | 1.2% | i |
| Cc1c(NC(=O)CSc2ncn[nH]2)c(=O)n(-c2ccccc2)n1C | x | 1.5% | i |
| CC1CCN(C(=O)CCc2nc3cc(S(=O)(=O)N(C)C)ccc3n2C)CC1 | 0.71 | 1.3% | i |

Among those listed so far, 6 have a tert-butyl group:
| SMILES | WNV NS2B-NS3 inh | Hsc70 | MT1-MMP reporter |
| --- | --- | --- | --- |
| Cn1c(NC(=O)c2ccc(C(C)(C)C)cc2)cc(=O)n(C)c1=O | -0.05 | -4.1% | i |
| CCOC(=O)Cc1csc(NC(=O)C(C)(C)C)n1 | -0.88 | 1.3% | i |
| CC(C)C[C@H](NC(=O)OC(C)(C)C)C(=O)N1CCC(C(=O)O)CC1 | x | -1.6% | i |
| CCn1c(-c2ccc(C(C)(C)C)cc2)n[nH]c1=S | 1.7 | 0.2% | i |
| CC(C)(C)C(=O)C(Cc1ccccc1Cl)n1cncn1 (stereo unspecified) | x | 2.2% | i |
| CCOC(=O)c1ccc(S(=O)(=O)Nc2cc(C(C)(C)C)no2)cc1 | 0.45 | 5.2% | i |

Other records.
| SMILES | WNV NS2B-NS3 inh | Hsc70 | MT1-MMP reporter |
| --- | --- | --- | --- |
| COc1cc(C(=O)OCCN2CCOCC2)ccc1O | -1.6 | -7.3% | i |
| COc1ccc(-c2noc(CN(C(=O)c3c(-c4ccccc4Cl)noc3C)C(C)C)n2)cc1 | 2.4 | -4.4% | i |
| COc1ccc(C2CC(=O)c3cnc(NC(=O)c4cc(OC)cc(OC)c4)nc3C2)cc1 (stereo unspecified) | 0.82 | -2.2% | i |
| O=C(CSc1cn(CCNC(=O)c2cccs2)c2ccccc12)NCC1CCCO1 (stereo unspecified) | 0.72 | 1.2% | i |
| O=C(CCCn1c(=O)[nH]c2ccccc2c1=O)N1CCN(c2ccccn2)CC1 | -0.66 | 1.9% | i |
| Cc1nc(C)c(C)nc1C | x | -2.8% | i |
| Cc1cc(C)n(-c2cc(Cl)cc(Cl)c2)c(=O)c1C#N | x | 0.4% | i |
| O=C(c1cc(S(=O)(=O)N2CCOCC2)ccc1F)N1CCN(Cc2ccccc2)CC1 | -1.4 | 6.0% | i |
| Cc1ccc(NC(=O)c2ccc(OC(=O)c3ccco3)cc2)cc1 | -2.5 | 1.3% | i |
| Cc1nn(Cc2ccc(F)cc2)c(C)c1NC(=O)c1cnn2c1NC(c1ccccc1)CC2C(F)(F)F (stereo unspecified) | x | -3.2% | i |
| CC(=O)c1ccc(NC(=O)N[C@@H](Cc2ccccc2)C(=O)O)cc1 | 1.4 | -2.6% | i |
| Cc1nc(=O)c(-c2ccccc2)c(C)n1Cc1ccccc1 | -1.2 | -3.2% | i |
| C=CCNc1nc(Nc2ccc(OC)cc2OC)nc(OCC)n1 | -0.63 | 7.4% | i |
| CC(C)CC1NC(=O)N(CC(=O)N2CCN(S(=O)(=O)c3ccc4ccccc4c3)CC2)C1=O (stereo unspecified) | x | 1.9% | i |
| CCOc1ccccc1NC(=O)CN(c1ccc(OC)cc1)S(=O)(=O)c1c(C)noc1C | 1.9 | -5.9% | i |
| CC(C)(C)NC(=O)C(c1ccc(F)cc1)N(Cc1ccco1)C(=O)Cn1nnc(-c2cccs2)n1 (stereo unspecified) | x | -3.2% | i |
| CC(C)COC(=O)c1ccc2c(c1O)C(=O)c1ccccc1C2=O | x | 22% | i |
| CCOC(=O)C(NC(C)=O)(Nc1ccc(S(=O)(=O)Nc2nccs2)cc1)C(F)(F)F (stereo unspecified) | 0.6 | -5.0% | i |
| O=C1CCC(C(=O)N(c2ccccc2)C2(C(=O)NC3CCCCC3)CCCCC2)N1 (stereo unspecified) | 1.8 | 3.9% | i |
| CC(=O)Oc1c(Cl)c(N2CCOCC2)c(OC(C)=O)c2ccccc12 | 0.31 | -0.9% | i |
| COc1ccccc1OCC(=O)Nc1cccc(C(=O)N2CCOCC2)c1 | 0.16 | -0.2% | i |
| COc1ccc(Cc2nnc(SCC(=O)NCC3CCCO3)o2)cc1 (stereo unspecified) | -0.33 | 7.5% | i |
